# PV pol inh = inhibitors of poliovirus RNA polymerase binding and polymerization; 150,000 tested, 0.66% active; % elongation, % (compound at 16.7 µg/mL); poliovirus polymerase elongation, fluorescence polarization; stronger effect = lower value; in the data active means % elongation below about 90%; further: some results filed as inactive read as strong as hits
# Target sequence (P03300 1749-2209 limits assumed): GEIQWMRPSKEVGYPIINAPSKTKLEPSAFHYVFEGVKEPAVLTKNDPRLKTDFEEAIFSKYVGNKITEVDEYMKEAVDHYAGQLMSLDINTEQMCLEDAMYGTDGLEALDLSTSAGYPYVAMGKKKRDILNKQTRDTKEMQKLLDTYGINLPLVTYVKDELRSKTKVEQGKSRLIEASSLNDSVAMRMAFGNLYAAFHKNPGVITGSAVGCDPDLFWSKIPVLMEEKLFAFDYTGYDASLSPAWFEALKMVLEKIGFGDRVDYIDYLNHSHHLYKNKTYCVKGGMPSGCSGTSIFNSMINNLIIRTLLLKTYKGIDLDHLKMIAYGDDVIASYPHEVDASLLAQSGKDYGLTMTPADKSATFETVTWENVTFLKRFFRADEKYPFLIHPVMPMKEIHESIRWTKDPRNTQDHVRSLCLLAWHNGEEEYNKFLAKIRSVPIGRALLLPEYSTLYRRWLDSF
# PV pol inh intensity = further read-out of PV pol inh, marked with its call; % elongation; measured here: total intensity read-out; formula for this scale not given here;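 total fluorescence in place of polarization; lower means less elongation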
# Numbers without * were called inactive. Some of the compounds tested. The share of hits here may be higher or lower than overall.
# Second line of a record – PV pol inh	PV pol inh intensity
Cc1cccc2nc(-c3cccnc3)c(Nc3ccc(C(C)C)cc3)n12
    111	113
COc1ccc2cc3cc(C(=O)N4CCN(c5ccc(C(C)=O)cc5)CC4)sc3nc2c1Cl
    105	108
Cc1ccc(NC(=O)CSc2ncc(-c3ccccc3)[nH]2)cc1
    103	103
N#Cc1ccc(C(=O)Nc2ccccc2-c2nc3ccccc3s2)c(F)c1
    100	93
Cc1nc2nc(SCC(=O)NC3CCCCC3)nn2c(C)c1Cc1ccccc1Cl
    100	101
CCOc1ccc(/C=C/C(=O)Nc2sc3c(c2C(=O)OC)CCCC3)cc1
    106	108
Cc1ccc(-n2nc(C)c3c(C(=O)Nc4ccc(C)cc4Cl)cc(C)nc32)cc1
    104	107
CC(=O)Nc1ccc(S(=O)(=O)Nc2cccc(-c3ccc(N4CCCCCC4)nn3)c2)cc1
    110	111
CCN(c1cc(C)cc(C)c1)S(=O)(=O)c1nnc(NC(=O)c2cccc(F)c2)s1
    112	114
O=C(NCC(c1ccc2c(c1)OCO2)N1CCOCC1)C(=O)Nc1ccc(F)cc1F (stereo unspecified)
    119	116

# Molecules above containing a halogen (6):
# Second line of a record – PV pol inh	PV pol inh intensity
COc1ccc2cc3cc(C(=O)N4CCN(c5ccc(C(C)=O)cc5)CC4)sc3nc2c1Cl
    105	108
N#Cc1ccc(C(=O)Nc2ccccc2-c2nc3ccccc3s2)c(F)c1
    100	93
Cc1nc2nc(SCC(=O)NC3CCCCC3)nn2c(C)c1Cc1ccccc1Cl
    100	101
Cc1ccc(-n2nc(C)c3c(C(=O)Nc4ccc(C)cc4Cl)cc(C)nc32)cc1
    104	107
CCN(c1cc(C)cc(C)c1)S(=O)(=O)c1nnc(NC(=O)c2cccc(F)c2)s1
    112	114
O=C(NCC(c1ccc2c(c1)OCO2)N1CCOCC1)C(=O)Nc1ccc(F)cc1F (stereo unspecified)
    119	116

# The list goes on.
# Second line of a record – PV pol inh	PV pol inh intensity
CC(=O)c1ccc(OC(=O)c2c(-c3ccccc3Cl)noc2C)cc1
    102	98
CC(C)(C)c1ccc(C(=O)NC2=NC(c3cccc(F)c3)CC(=O)N2)cc1 (stereo unspecified)
    107	107
COc1cccc(N2CCN(C(=O)c3cnc4c(-c5ccc(F)cc5)c(C)nn4c3C)CC2)c1
    107	115
CCc1nnc(SCc2nc(-c3cccc(Cl)c3)oc2C)c2cc3sc(C)cc3n12
    108	110
Cc1ccc(NCc2cccn2-c2nnc(N3CCC(C(=O)NCCC(C)C)CC3)s2)cc1
    109	101
CCOC(=O)c1cc(-c2ccc(OC)cc2)n(CCC(=O)NCc2ccc(OC)cc2)c1C
    101	104
CCN(CC)S(=O)(=O)c1ccc(NC(=O)c2ccc3c(=O)n4c(nc3c2)CCCCC4)cc1
    104	107
COc1ccccc1-c1nnc(SCC(=O)c2ccc(F)cc2)n1-c1ccccc1
    83*	80*
COc1ccc(C(=O)N2c3nc(-c4ccco4)nn3C3(CCCCC3)[C@@H]3CCCC[C@@H]32)cc1OC
    108	109
CCOc1ccc2nc(N3CCN(C(=O)c4ccco4)CC3)sc2c1
    101	109
COc1ccc(CNC(=O)C2CCN(C(=O)c3cnn(-c4ccccc4)c3-n3cccc3)CC2)cc1
    106	106
CCCN(Cc1cccs1)C(=O)Nc1ccccc1C
    111	112
Cc1cc(C)cc(NC(=O)CSc2nccn2C2CCCC2)c1
    110	112
CC(C)(C)c1ccc(C(=O)NC(Cc2c[nH]c3ccccc23)C(=O)OCC(=O)c2ccc(Cl)cc2)cc1 (stereo unspecified)
    103	103
CCC(=O)N1CCc2cc(CNS(=O)(=O)c3c(C)cc(C)cc3C)ccc21
    116	112
Cc1cccn2c(=O)c(C(=O)NCCc3ccccc3)c(O)nc12
    113	113
CC1CCN(C(=O)CSc2nc(-c3ccc(F)cc3)cc(C(F)(F)F)n2)CC1
    101	104
CCc1cccc(C)c1NC(=O)CSc1nc(C)cc(C)c1C(=O)Nc1ccccc1
    107	104
O=C(Cn1c(=O)n(Cc2ccccc2)c(=O)c2oc3ccccc3c21)Nc1ccc(Cl)cc1
    107	107
CC(C)(C)OC(=O)N1CCC(c2c(C(=O)NCc3ccc4c(c3)OCO4)cnn2-c2ccc(F)cc2F)CC1
    110	108
COc1cc2c(cc1OC)C(c1cccc(Cl)c1)CC(=O)N2 (stereo unspecified)
    106	106
COC(=O)c1cc2oc3ccccc3c2n1Cc1ccc(Cl)cc1
    110	110
Cc1ccc2ccc3cc(C(=O)N4CCN(c5ccccc5)CC4)nc3c2[nH]1
    118	113
CCCOc1ccc(-c2nc(SC)[nH]c(=O)c2C#N)cc1OC
    113	110
CC(C)CCn1nnc2sc(-c3ccccc3)cc2c1=O
    104	106
CCOC(=O)C1=C(CNCc2ccccc2)NC(=O)NC1c1ccc(C)cc1 (stereo unspecified)
    108	109
COc1ccc(C(=O)N2CCCCC2CCN2CCCCC2)cc1 (stereo unspecified)
    115	107
COC(=O)c1ccc(NC(=O)C(=O)NCCc2csc(-c3ccc(C(F)(F)F)cc3)n2)cc1
    110	116
Cc1nc(CC(=O)Nc2cc(Cl)ccc2C)cs1
    104	106
O=C(Cn1c(=O)n(-c2ccccc2Cl)c(=O)c2sc3ccccc3c21)NC1CCCC1
    103	111
CC(C)(C)c1ccc(C(=O)NCC(c2ccco2)S(=O)(=O)c2ccccc2)cc1 (stereo unspecified)
    107	114
CC1CCN(c2nc3ccc(C(=O)NCCc4ccc(S(N)(=O)=O)cc4)cc3s2)CC1
    107	113
CCCCN(CC)CCNC(=O)c1cc2c(=O)oc3ccc(C)cc3c2s1
    91	89
COc1ccc(NC(=O)CSc2nc(-c3ccc(OC)cc3)cc(=O)[nH]2)cc1
    107	106
CCCCN(CC)CCNC(=O)CCn1cnc2onc(-c3ccc(F)cc3)c2c1=O
    97	102
CCc1ccccc1NC(=O)c1cc(S(=O)(=O)N2CCCc3ccccc32)ccc1F
    113	117
COc1ccc(C(=O)NCCc2sc(-c3ccc(Cl)cc3)nc2C)c(OC)c1
    110	113
Cn1c(=O)n(C)c2cc(NS(=O)(=O)c3ccc(C(C)(C)C)cc3)c(NCc3ccccc3)cc21
    99	100
COc1ccc(NC(=O)c2ccc3nc(C(C)C)oc3c2)cc1OC
    108	104
CCOc1ccc(-c2nnc(SCC(=O)NC(C)CC)nc2-c2ccc(OCC)c(OC)c2)cc1OC (stereo unspecified)
    110	111

# A second format for some results above:
SMILES	PV pol inh	PV pol inh intensity
COc1ccc(NC(=O)c2ccc3nc(C(C)C)oc3c2)cc1OC	108	104
Cn1c(=O)n(C)c2cc(NS(=O)(=O)c3ccc(C(C)(C)C)cc3)c(NCc3ccccc3)cc21	99	100

# The listing continues:
# Second line of a record – PV pol inh	PV pol inh intensity
CCN(CC)S(=O)(=O)c1ccc(C(=O)Nc2nc3ccc(Cl)cc3s2)cc1
    114	114
Cc1ccccc1CSc1cn(CC(=O)N2CCCCC2)c2ccccc12
    122	122
COc1cccc(C2=CC(c3ccc(OC)c(OC)c3OC)n3ncnc3N2)c1 (stereo unspecified)
    106	99
COc1ccc(S(=O)(=O)NCC(c2cccs2)S(=O)(=O)c2ccccc2)cc1OC (stereo unspecified)
    109	115
CN(C1CCCCC1)S(=O)(=O)c1ccc2c(c1)c(=O)c(C(=O)N1CCN(c3ccccc3)CC1)cn2C
    107	110
Cc1ccc(N2C(=O)CSC23C(=O)N(CC(=O)Nc2ccccc2F)c2ccccc23)cc1C (stereo unspecified)
    112	113
CCCCN1C(=O)CN(C2CCCCCC2)C(=O)C1c1ccc(OCC)c(OC)c1 (stereo unspecified)
    109	108

# Retrieved by structure from the list above, 5 records:
# Second line of a record – PV pol inh	PV pol inh intensity
CCCCN(CC)CCNC(=O)CCn1cnc2onc(-c3ccc(F)cc3)c2c1=O
    97	102
CCCOc1ccc(-c2nc(SC)[nH]c(=O)c2C#N)cc1OC
    113	110
Cc1ccc(NC(=O)CSc2ncc(-c3ccccc3)[nH]2)cc1
    103	103
CC(C)(C)c1ccc(C(=O)NC(Cc2c[nH]c3ccccc23)C(=O)OCC(=O)c2ccc(Cl)cc2)cc1 (stereo unspecified)
    103	103
COc1ccc2cc3cc(C(=O)N4CCN(c5ccc(C(C)=O)cc5)CC4)sc3nc2c1Cl
    105	108

# One compound at a time, from the list above. Order of values: PV pol inh | PV pol inh intensity
# `COc1cccc(C2=CC(c3ccc(OC)c(OC)c3OC)n3ncnc3N2)c1` (stereo unspecified) is listed with 106 | 99
# `CCN(CC)S(=O)(=O)c1ccc(C(=O)Nc2nc3ccc(Cl)cc3s2)cc1` is listed with 114 | 114
# `Cc1ccccc1CSc1cn(CC(=O)N2CCCCC2)c2ccccc12` is listed with 122 | 122
# `CN(C1CCCCC1)S(=O)(=O)c1ccc2c(c1)c(=O)c(C(=O)N1CCN(c3ccccc3)CC1)cn2C` is listed with 107 | 110
# `COc1ccc(S(=O)(=O)NCC(c2cccs2)S(=O)(=O)c2ccccc2)cc1OC` (stereo unspecified) is listed with 109 | 115

# Screening data as filed in PubChem.
